nsP2pro inh: CHIKV nsP2 protease inhibition, primary qHTS | Q8JUX6 | AID 1964107 | 31,000 tested, 1.1% active | Potency, µM (highest dose often 24.9 µM), inactives show at the highest dose activity change, negative = inhibition, most hits filed as inhibitors | FRET peptide cleavage, nsP2pro, fluorescence 1 h; active means well fitted inhibition curve with a large enough effect; inconclusive means small, poorly fitted or top-dose-only effect; inactive means no such curve, though single readings can be large or run the other way; further: nearly all actives have a fitted effect of over 60% in size; a reference inhibitor and vehicle were the controls
The depositor's hits bear a star; i = inactive; ? = inconclusive; & = joins results of further samples; ! = repeats disagree; [ ] = dose if it differs, or a comment. On the % scale 0 is the no-effect control and ±100 the full control effect; potency means the concentration at half of the fitted maximal effect. A portion of the library. The share of hits here may be higher or lower than overall.

SMILES	nsP2pro inh
O=[S+]([O-])(NC[C@H]1CCC[C@H](CN[S+](=O)([O-])c2c(F)cccc2F)C1)c1ccc2c(c1)OCCO2	-6.6%
Cc1cc(C(=O)N2CCN(c3cccc(Cl)c3)CC2)n(-c2ccccc2)n1	-12.3%
COc1ccc(OC)c(NS(=O)(=O)c2cc3c(cc2Cl)N(C(C)=O)CCO3)c1	-17.5%
CC[C@@H]1[C@@H]2CN(C(=O)[C@H](C(C)(C)C)NC(=O)O[C@@H]3C[C@H]3CCCCC(F)(F)c3nc4ccc(OC)cc4nc3O2)[C@@H]1C(=O)N[C@]1(C(=O)NS(=O)(=O)C2(C)CC2)C[C@H]1C(F)F	-7.2%
O=C(C1CCCC1)N1CCC2(CC1)CC(c1ccccc1)=NO2	-7.9%
Clc1ccc(CSC(Cn2ccnc2)c2ccc(Cl)cc2Cl)cc1 (stereo not drawn)	101.2%[activator]
CNS(=O)(=O)c1cn(CC(=O)Nc2cccc(OC)c2)cc1S(=O)(=O)NC	-22.6%
CC[C@H]1OC(=O)[C@H](C)[C@@H](O[C@H]2C[C@@](C)(OC)[C@@H](O)[C@H](C)O2)[C@H](C)[C@@H](O[C@@H]2O[C@H](C)C[C@H](N(C)C)[C@H]2O)[C@](C)(O)C[C@@H](C)C(=O)[C@H](C)[C@@H](O)[C@]1(C)O	0.7%[10 µM]
Cc1ncccc1C(=O)N1CCCN(C(=O)C2CC2)C(c2ccccc2)CC(=O)NCC1 (stereo not drawn)	1.7%
C#C[C@]1(O)CC[C@H]2[C@@H]3CCC4=CC(=O)CC[C@@H]4[C@H]3C(=C)C[C@@]21CC	?
CCC(C)NC(=O)CCC(=O)NNc1nc2ccccc2c2nc(C)nn12 (stereo not drawn)	-5.1%
COc1ccc(-c2ccccc2)cc1NS(=O)(=O)c1cc(Cl)cc(Cl)c1O	-0.9%
CC(C)(C)OC(=O)Cc1nnc(-c2cc3ccccc3[nH]2)s1	i
O=C(Nc1ccc(Br)cc1)C(Cc1ccccc1)NS(=O)(=O)c1cccc2nsnc12 (stereo not drawn)	-4.1%
CCCn1c(-c2ccc(F)cc2)nc2c(NCCN(C)C)nc(C)nc21	-1.2%
CCC1CCCCN1CCCNC(=O)c1ccc2c(c1)sc1nc(-c3ccc(F)cc3)cn12 (stereo not drawn)	-1.7%
Cc1ccc(-c2cc(C(=O)NCc3ccccc3)c3ccccc3n2)cc1C	i
Cc1nn(-c2ccc(C(F)(F)F)cc2)c(C)c1[C@@H]1C=C[C@@H](NCc2ccc(N(C)C)cc2)C1	6.4%
O=P(O)(O)C(O)(Cn1ccnc1)P(=O)(O)O	-22.6%[2.68 µM]
O=C(O)c1ccc(S(=O)(=O)N[C@H](Cc2ccc([N+](=O)[O-])cc2)C(=O)O)cc1	0.6%
CC(=O)NCCCC(=O)N1CCC2(CC1)CC(NC(C)=O)c1ccccc12 (stereo not drawn)	-13.3%
CN1C[C@H]2CNC[C@@]2(C(=O)NCc2ccccc2OCc2ccccc2)C1	i
C[C@]12C[C@H](O)[C@H]3[C@@H](CCC4=CC(=O)CC[C@@]43C)[C@@H]1CC[C@@H]2C(=O)CO	?
COCCCNc1ncnc2c1nnn2C	?
COc1cc(OC)cc(-c2onc(C)c2C(=O)NCc2ccccc2C)c1	-3.6%

The listing continues:
SMILES	nsP2pro inh
O=C(NC1CCCc2c1cnn2-c1ccc(F)cc1F)c1ccccn1 (stereo not drawn)	7.94µM*!
COc1ccc(C(=O)NCCn2cc(SC(C)c3ccccc3)c3ccccc32)cc1OC (stereo not drawn)	-0.2%
COc1ccc(-c2cc(=O)c3c(O)cc(O)cc3o2)cc1O	19.9%
c1nc(NCCCN2CCOCC2)c2cc(-c3ccc4c(c3)OCO4)ccc2n1	-10.9%
COc1cccc(CNc2ccc(S(=O)(=O)Nc3cccs3)cc2)c1O	i[5.1 µM]
COc1ccc(NC(=O)CN2C(=O)C(c3ccc(C(C)(C)C)cc3)=NC2(C)C)cc1Cl	-15.0%
C/C1=C\CCC2=C[C@@H](OC2=O)c2c(C)coc2C1	5.6%
CCOC(=O)c1c(C)n(S(=O)(=O)c2ccc(C)cc2C)c2ccc(NS(=O)(=O)c3ccc(C)cc3C)cc12	-18.4%
COc1cccc(C2c3c(ncn(-c4ccccc4C)c3=N)Oc3ccc4ccccc4c32)c1 (stereo not drawn)	-1.3%
COc1ccc(CN2CCN(c3ncnc4sc5c(c34)CC(C)CC5)CC2)cc1F (stereo not drawn)	-13.0%
NCCc1cnc[nH]1	-8.0%&-11.8%&-2.5%&15.9%
COc1ccc(-c2nn(-c3ccccc3)cc2CN2CCC(F)CC2)c(F)c1	i
CNC(=O)[C@@H](C1CC1)N1CCC[C@H]1C(=O)NCc1cccnc1	3.3%[39.2 µM]
Nc1cccc2c1C(=O)N(C1CCC(=O)NC1=O)C2=O (stereo not drawn)	1.5%
CCOc1cccc2sc(NC(=O)c3ccc(S(=O)(=O)N4CCc5ccccc54)cc3)nc12	-15.7%
O=C(CCc1ccccc1)NC1CC(=O)N(c2cccc(F)c2)C1 (stereo not drawn)	-15.9%
CC(C)COc1ccc(-c2ccc(=O)n(CC(=O)NCCc3ccccc3)n2)cc1	i
O=C(Nc1nc2n(n1)C(c1ccc(F)cc1)C=C(c1ccc(Cl)cc1)N2)c1ccc([N+](=O)[O-])cc1 (stereo not drawn)	78.7%[activator]
C[C@@H]1CC[C@]2(C)C(C[C@@H](O)[C@H](O)[C@]23CO3)[C@@]1(C)CCc1ccoc1 (stereo partly drawn)	-9.3%
O=C(Nc1ccc(N2CCOCC2)c(F)c1)Nc1nnc(-c2ccncc2)s1	i
COc1ccc(CNC(=O)c2cc3cc(OC)ccc3oc2=O)cc1	-23.3%
Cc1cn[nH]c1	-11.5%
CC(=O)OC/C(=C/C(=O)O)CC[C@@H]1C(CO)=CC[C@@H]2C(C)(C)CCC[C@@]12C	4.8%
CCCCNc1nc(C)nc2c1nc(-c1ccccc1)n2CCCN(C)C	0.6%
COc1ccc(NC(=O)Cn2c(=O)ccc3cc(S(=O)(=O)N4CCCC4)ccc32)cc1Cl	-12.5%

Next compounds
SMILES	nsP2pro inh
CC(C)(CC(=O)N1CCCC1)NCC(=O)N1C[C@@H](F)C[C@H]1C#N	10.9%
CN(C)c1cccc(Oc2cnc(Nc3cccc(O)c3)nc2)c1	-2.8%
COc1ccc(C(=O)Oc2c(Sc3ccc(C)cc3)c(C)nn2C(C)(C)C)c(OC)c1	-8.7%
Cc1ccccc1N(C)C1CN([S+](=O)([O-])c2c(C)noc2C)C1	-17.2%
O=C(c1ccccc1-c1ccccc1)N1CCCn2cncc2C1	i
N#Cc1nc(Nc2cc(F)cc(F)c2)c2ncn(CCN3CCCC3)c2n1	-7.1%
O=C(NCCCc1ccccc1)C1CCC(CNS(=O)(=O)c2cccc3nsnc23)CC1 (stereo not drawn)	-0.7%
c1ccc(CNc2ncncc2-c2ccoc2)cc1	8.3%
c1ccc(CNc2nc(-c3cccs3)nc3ccccc23)cc1	2.8%
C[C@@H]1C(=O)O[C@H]2[C@H]1CC[C@@]1(C)Cc3sc(NC(=O)COc4ccccc4)nc3[C@@H](C)[C@H]21	2.9%
Cc1c(CC(=O)NCCc2ccccc2F)c(=O)oc2cc(O)c(Cl)cc12	-15.2%
CCN1C(=O)C2(CCN(S(=O)(=O)c3cc(C)ccc3C)CC2)c2ccccc21	-13.2%
CC(C)Cn1c(=O)c2sccc2n2c(CCCC(=O)NCCc3ccccc3)nnc12	-19.0%
CC(CCc1ccccc1)NC(=O)Cn1c(=O)nc(-c2ccccc2)c2ccccc21 (stereo not drawn)	-14.2%
COc1ccc(CCn2cc3c(c2-c2ccc(Br)cc2)c(=O)n(C)c(=O)n3C)cc1OC	-19.2%
CC1(C)C2CC=C(COC3OC(COC4OCC(O)(CO)C4O)C(O)C(O)C3O)C1C2 (stereo not drawn)	7.1%[10 µM]
O=C1COc2ccc(Nc3ccc(C(F)(F)F)cc3)nc2CN1	i
Cc1ccc(C)c(S(=O)(=O)c2cn(C)c3cc(N4CCCCC4C)c(F)cc3c2=O)c1 (stereo not drawn)	-9.3%
CN1CCCCC1Cn1cc(C(=O)c2cc([N+](=O)[O-])ccc2I)c2ccccc21 (stereo not drawn)	16.3%
O=C(CSc1ncc(CO)n1Cc1ccccc1)Nc1nc2ccccc2s1	2.2%
CCc1nc(NC2CCCC2)ncc1C(=O)O	i
CCn1cc(C(=O)NCc2ccc(F)cc2)c(=O)c2cc(S(=O)(=O)N(C)C)ccc21	-5.9%
Cc1ccc(NC(=O)Cn2c(=O)ccc3cc(S(=O)(=O)N4CCC(C)CC4)ccc32)cc1Cl	-23.4%
Cc1cccc(-n2cnc3cc(C(=O)N4CCC(C(F)(F)F)CC4)ccc32)c1	1.0%
C[C@@H]1O[C@@H](O[C@H]2[C@H](OC(=O)C34CCC5(C)C(=CCC6C7(C)CC(O)C(O[C@@H]8O[C@H](C(=O)O)[C@@H](O)[C@H](O)[C@H]8O)C(C)(C(=O)O)C7CCC65C)C3CC(C)(C)CC4O)O[C@H](C)[C@@H](O)[C@@H]2O)[C@H](O)[C@@H](O[C@@H]2OC[C@](O)(CO)[C@H]2O[C@@H]2O[C@H](CO)[C@@H](O)[C@H](O)[C@H]2O)[C@H]1O (stereo partly drawn)	12.8%[5.1 µM]

Quoted from the listing:
CC(CCc1ccccc1)NC(=O)Cn1c(=O)nc(-c2ccccc2)c2ccccc21 (stereo not drawn) in nsP2pro inh shows -14.2%
CC1(C)C2CC=C(COC3OC(COC4OCC(O)(CO)C4O)C(O)C(O)C3O)C1C2 (stereo not drawn) in nsP2pro inh shows 7.1%[10 µM]

Already shown: 6 of the compounds above.
SMILES	nsP2pro inh
O=C(CSc1ncc(CO)n1Cc1ccccc1)Nc1nc2ccccc2s1	2.2%
CCc1nc(NC2CCCC2)ncc1C(=O)O	i
CCn1cc(C(=O)NCc2ccc(F)cc2)c(=O)c2cc(S(=O)(=O)N(C)C)ccc21	-5.9%
Cc1ccc(NC(=O)Cn2c(=O)ccc3cc(S(=O)(=O)N4CCC(C)CC4)ccc32)cc1Cl	-23.4%
Cc1cccc(-n2cnc3cc(C(=O)N4CCC(C(F)(F)F)CC4)ccc32)c1	1.0%
C[C@@H]1O[C@@H](O[C@H]2[C@H](OC(=O)C34CCC5(C)C(=CCC6C7(C)CC(O)C(O[C@@H]8O[C@H](C(=O)O)[C@@H](O)[C@H](O)[C@H]8O)C(C)(C(=O)O)C7CCC65C)C3CC(C)(C)CC4O)O[C@H](C)[C@@H](O)[C@@H]2O)[C@H](O)[C@@H](O[C@@H]2OC[C@](O)(CO)[C@H]2O[C@@H]2O[C@H](CO)[C@@H](O)[C@H](O)[C@H]2O)[C@H]1O (stereo partly drawn)	12.8%[5.1 µM]

(more compounds)
SMILES	nsP2pro inh
COc1ccc(OC)c(CCNC(=O)c2cnn(-c3ccccc3)c2-n2cccc2)c1	-23.7%
Cc1cccc(N2CCN(C(=O)C3CCN(c4ncnc5c4nc4n5CCCCC4)CC3)CC2C)c1 (stereo not drawn)	-8.9%
CC(O)CN1CC2(CCC1=O)CCN(Cc1cncn1C)CC2 (stereo not drawn)	i
CCC(=O)N1CCc2c(C(=O)NCC(C)C)cccc21	-4.0%
O=C(NCc1ccc(F)cc1)c1ccc(CS(=O)(=O)c2ccc(Cl)cc2)o1	-9.3%
COc1ccc(CCNC(=O)c2ccc3c(c2)N(Cc2c(F)cccc2Cl)C(=O)CS3)cc1OC	-27.1%
Clc1ccccc1CSc1nnc(C2CCNCC2)o1	12.3%
FC(F)(F)c1ccccc1-c1nc(NCC#Cc2cccnc2)c2ccccc2n1	-2.1%&-6.0%
O=C(N[C@H]1CO[C@H]2[C@@H]1OC[C@@H]2n1nnnc1Oc1ccc(-n2ccnc2)cc1)c1ccccc1	i
COc1nc(C)cnc1NS(=O)(=O)c1cccnc1-c1ccc(-c2nnco2)cc1	-10.7%
Cc1c(CC(=O)N2CCCCC2)c(=O)oc2cc3occ(C(C)(C)C)c3cc12	-19.3%
CC1(C=O)CCCC2(C)C1CCC13CC(CO)C(CCC12)C3 (stereo not drawn)	?
Cc1ccc(-c2cc(C(=O)NCC[S+](=O)([O-])O)c3ccccc3n2)cc1C	i
COc1ccc(OC)c(CNC(=O)CSc2c3c(nc4cc(Cl)ccc24)CCCC3)c1	-6.9%
Cc1nc(-c2c3n(c(=O)n(CC#N)c2=O)CCCCC3)no1	i
Cc1ccc(CNC(=O)CSc2ncc(S(=O)(=O)c3ccc(C)c(Cl)c3)c(=O)[nH]2)cc1	-3.5%
COc1ccccc1CNC(=O)Cn1c(=O)oc2cc(S(=O)(=O)N3CCCC3)ccc21	-25.5%
CC1=C(c2ccc(C)c(C)c2)S(=O)(=O)N=C1N1CCC(C(=O)NCc2ccc(Cl)cc2)CC1	-4.1%
CCC1CCCCN1CCCNC(=O)c1cn(C)c2ccc(S(=O)(=O)N(C)C3CCCCC3)cc2c1=O (stereo not drawn)	6.6%
CC(CC(=O)NCc1ccc(Cl)cc1Cl)CC1=NS(=O)(=O)c2ccccc2N1 (stereo not drawn)	-13.2%
CCNCc1nc2c(N)nc3ccccc3c2n1CC(C)(C)O	?
COc1ccc(CN2CCC(N3CCOC3=O)CC2)cc1	i
C=C1CCC(OC(C)=O)C2(C)CC3OC(=O)C(C)=C3CC12 (stereo not drawn)	-5.9%
CCN(CC)CCNC(=O)c1c(C)[nH]c(/C=C2\C(=O)Nc3ccc(F)cc32)c1C	60.9%[activator]
Cc1ccccc1Oc1nc2ccccn2c(=O)c1/C=C(\C#N)c1nc2ccccc2[nH]1	-13.1%
CCc1ccc(-n2c(=O)c3c4c(sc3n(Cc3ccc(F)cc3)c2=O)CCCC4)cc1	-18.9%
O=c1c(N2CCc3ccccc3C2)csc2ccccc12	-16.1%
CC(=O)NC1(C)CCN(Cc2cnc(-c3ccc4c(ccn4C)c3)s2)CC1	i
CCN(CC)S(=O)(=O)c1ccc2c(c1)N(CC(=O)Nc1cccc(C#N)c1)C(=O)CO2	-5.6%
Cc1cccc(-n2c(CC3C(=O)Nc4ccc(C)cc43)nc3ccccc3c2=O)c1 (stereo not drawn)	-13.7%

From PubChem
